High-throughput results: PubChem, National Center for Advancing Translational Sciences (NCATS)
gsp antag: gsp mutant antagonism | AID 624288 | gsp-mutant cells, cAMP HTRF, 30 min; control for the full effect not named in the record | 340,000 tested, 0.4% active | Potency, µM (titrated, usually from 76.9 µM), for the others: at the top dose activity change, negative = inhibition, actives largely listed as inhibitors; active = falling curve of any shape with a large fitted effect; inconclusive = falling curve, mostly with a smaller effect; inactive = flat or rising curve; cell line not stated here;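 further: intracellular cAMP measured with PDE inhibitor Ro 20-1724 present during compound exposure; potency means the concentration at half of the fitted maximal effect; on the % scale 0 is the no-effect control and ±100 the full control effect; nearly all actives have a fitted effect of over 65% in size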
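Cells in G418 medium, seeded 16-24 h, 37C; buffer exchange to DPBS + 1 mM CaCl2, 0.5 mM MgCl2, 0.05% BSA; cpds in DMSO + […] (300 uM stock), 30 min 37C; HTRF cAMP detection.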
Six1-Eya2 blk: Six1/Eya2 interaction inhibition; Q15475+O00167; AlphaScreen GST-Six1/His-Eya2 binding, biochemical; stronger effect = lower value; control for the full effect not named in the record; activity change, % (concentration not given with the values); 360,000 tested, 0.56% active; AID 651725; in the data active = activity change below about -65%; inconclusive = about -30% to -65%; inactive = above about -30%; further: on the % scale 0 is the no-effect control and ±100 the full control effect
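AlphaScreen luminescence read after one hour at 37 °C in darkness. Pin-transferred compounds met GST-Six1 and His-Eya2 protein (5X stock 250 nM/500 nM) plus glutathione donor and Ni-chelate acceptor beads (5X, 50 ug/mL).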
gsp agonist: agonists of gsp mutant (McCune-Albright syndrome); AID 624287; 340,000 tested, 0.13% active; gsp mutant cells, cAMP HTRF, 30 min; control for the full effect not named in the record; Potency, µM (titrated, usually from 76.9 µM), inactives show at the top dose activation (cAMP increase), most hits filed as activators; active = well fitted activation curve with a large enough effect; inconclusive = small, poorly fitted or top-dose-only effect, or another doubt; inactive = no such curve, though single readings can be large or run the other way; cell line not stated here;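 further: phosphodiesterase inhibitor Ro 20-1724 added with compounds to block cAMP breakdown; potency means the concentration at half of the fitted maximal effect; nearly all actives have a fitted effect of over 60% in size; about a fifth of the inactives were tested at one dose only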
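Cells stably selected in G418 were plated at 2000/well, grown 16-24 hr, then given compounds in DMSO with the PDE inhibitor […] (300 uM solution added) for 30 min at 37C; cAMP was read by HTRF.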
D2 ag: agonists of human D2 dopamine receptor (beta-arrestin); P14416; activation, % (no concentration beside the values); 360,000 tested, 0.084% active; DiscoveRx PathHunter D2 beta-arrestin, luminescence, 90 min; 100% = 57 uM dopamine signal; in the data active = activation above about 40%; inconclusive = about 15% to 40%; inactive = below about 15%; further: compound concentration not given in the record; the text of the record calls up to 30% inactive
Target sequence (P14416 whole entry, looked up): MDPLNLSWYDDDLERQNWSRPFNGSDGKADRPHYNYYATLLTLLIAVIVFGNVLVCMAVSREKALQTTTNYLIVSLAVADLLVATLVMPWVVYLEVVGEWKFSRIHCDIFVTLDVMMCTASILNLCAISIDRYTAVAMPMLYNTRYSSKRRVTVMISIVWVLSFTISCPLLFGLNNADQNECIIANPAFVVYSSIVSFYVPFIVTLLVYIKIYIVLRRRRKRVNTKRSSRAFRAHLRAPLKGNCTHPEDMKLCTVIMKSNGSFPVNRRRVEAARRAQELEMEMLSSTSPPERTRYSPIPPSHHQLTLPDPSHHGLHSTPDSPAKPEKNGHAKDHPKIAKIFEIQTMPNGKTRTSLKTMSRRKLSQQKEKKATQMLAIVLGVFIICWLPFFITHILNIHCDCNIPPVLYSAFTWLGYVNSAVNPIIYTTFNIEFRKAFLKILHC
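Agonist mode: compounds alone added to overnight-plated D2 PathHunter cells for 90 min at 37 C, with 57 uM final dopamine (EC100) defining full response. Beta-arrestin recruitment detected by chemiluminescent reagent, read after 1 h at ambient temperature.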
CtBP-E1A inh: CtBP/E1A binding inhibition. AlphaScreen GST-E1A/His-CtBP binding, 1536-well; stronger effect = lower value; control for the full effect not named in the record. activity change, % (test concentration not listed). 340,000 tested, 0.49% active; in the data active means activity change below about -65%; inconclusive means about -30% to -65%; inactive means above about -30%; further: on the % scale 0 is the no-effect control and ±100 the full control effect; compound concentration not given in the record
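AlphaScreen with 125 nM GST-E1A and 125 nM His-CtBP (5X stocks) in Tris pH 8.0, 300 mM NaCl, BSA, Tween 20, TCEP. Compounds preincubated 2 h at 37 deg C, then glutathione donor/nickel acceptor beads added for 1 h at 37 deg C in dark.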
D2 potentiator: potentiates the human D2 dopamine receptor allosterically; DiscoveRx D2 beta-arrestin cells, luminescence, 90 min; 100% = 57 uM dopamine signal; 360,000 tested, 0.23% active; potentiation, % (test concentration not listed); AID 624464; P14416; active = potentiation of 50% or more; inconclusive = 30% to 50%; inactive = 30% or less;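 further: compound concentration not given in the record; tested on top of an EC20 dose of dopamine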
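PathHunter beta-arrestin assay in DiscoveRx D2 cells. Compounds were added with an EC20 of dopamine (50 nM final) for 90 min at 37 deg C. Luminescence was read 1 h after detection reagent, with 57 uM dopamine as the EC100 control.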
Numbers without * were called inactive; ? = inconclusive; / = not tested or not shown; [ ] = remark or other dose. Rows were taken by chance; 1.4% or so of the library scored in one or more.

SMILES	gsp antag	Six1-Eya2 blk	gsp agonist	D2 ag	CtBP-E1A inh	D2 potentiator
CNC(=O)c1ccsc1NC(=O)C1CCN(S(=O)(=O)c2cccs2)CC1	-13%	8	8%[15.4 µM]	-1.8	-18	4
COC(=O)c1sccc1Oc1ccc(F)cc1[N+](=O)[O-]	16%	0	?	-2.5	2	-9
CC(C)OC(=O)c1cn(-c2ccccc2)nc1-c1ccco1	-12%	-7	-12%[15.4 µM]	0.4	7	-8
CCCSc1nnc(CSc2nc3ccccc3s2)n1-c1ccccc1	?	-2	-35%[inhibitor]	4.9	-12	-5
CC1=C(C(=O)N2CCCCCC2)CC(CC(=O)NCCN2CCOCC2)C(=O)N1Cc1ccccc1 (stereo not drawn)	/	-4	/	-4.5	0	-1
O=C(NCCCn1ccnc1)c1ccc(F)cc1	6%	2	-16%	-6.3	1	-2
CC(C)COP(=O)(c1ccc(N(C)C)cc1)C(O)c1ccc(N(C)C)cc1 (stereo not drawn)	-1%	-5	3%	-3.2	-1	-2
O=C(O)C1=C(C(=O)Nc2cccc(C(F)(F)F)c2)CCCC1	11%	3	?	-1.5	-3	-5
CC(=O)Nc1cccc(-c2ccnc3c2CC(C(=O)Nc2cccc(NS(C)(=O)=O)c2)O3)c1 (stereo not drawn)	/	-15	/	-2.6	-15	-7
C=CCn1c2ccccc2n2nc(C)c(=O)nc12	-9%	-8	5%	-0.5	-9	-5

Quoted at random: 7 entries already listed, in no set order.
SMILES	gsp antag	Six1-Eya2 blk	gsp agonist	D2 ag	CtBP-E1A inh	D2 potentiator
CC(C)OC(=O)c1cn(-c2ccccc2)nc1-c1ccco1	-12%	-7	-12%[15.4 µM]	0.4	7	-8
CC1=C(C(=O)N2CCCCCC2)CC(CC(=O)NCCN2CCOCC2)C(=O)N1Cc1ccccc1 (stereo not drawn)	/	-4	/	-4.5	0	-1
O=C(NCCCn1ccnc1)c1ccc(F)cc1	6%	2	-16%	-6.3	1	-2
CCCSc1nnc(CSc2nc3ccccc3s2)n1-c1ccccc1	?	-2	-35%[inhibitor]	4.9	-12	-5
CC(C)COP(=O)(c1ccc(N(C)C)cc1)C(O)c1ccc(N(C)C)cc1 (stereo not drawn)	-1%	-5	3%	-3.2	-1	-2
COC(=O)c1sccc1Oc1ccc(F)cc1[N+](=O)[O-]	16%	0	?	-2.5	2	-9
CNC(=O)c1ccsc1NC(=O)C1CCN(S(=O)(=O)c2cccs2)CC1	-13%	8	8%[15.4 µM]	-1.8	-18	4

Carrying on:
SMILES	gsp antag	Six1-Eya2 blk	gsp agonist	D2 ag	CtBP-E1A inh	D2 potentiator
Cc1onc(C(N)=O)c1C(=O)Nc1ncc(C(F)(F)F)cc1Cl	12%	6	12%	3.7	3	4
CN(C)Cc1c(C(=O)N/N=C/c2ccccc2OCc2ccc(F)cc2)nnn1-c1nonc1N	-1%	13	1%[15.4 µM]	-12	-1	-2
N#Cc1ccc(C(=O)N2CCCCC2c2cc(C(=O)NCc3ccccc3)no2)cc1 (stereo not drawn)	/	10	/	-3.2	-11	-14
Cc1ccc(S(=O)(=O)/N=C(/c2ccccc2)N(C)C)c(C)c1	14%	-1	-10%[15.4 µM]	-3.2	-5	-11
COc1cccc(N2CCN(CC(=O)Nc3ccccc3C(=O)NCc3ccccc3)CC2)c1	?	-21	-39%[inhibitor]	-1.4	-19	7
C=CCOc1ccc(CN(C)CC(O)COc2cccc3ccccc23)cc1 (stereo not drawn)	14%	-8	-23%[15.4 µM]	-0.5	-17	-19
CCn1c(C)c(C(C)=O)cc(C#N)c1=O	1%	-4	11%	-6.4	/	-2
COc1ccc(C(=O)NCC(=O)OCC(=O)c2ccc3c(c2)NC(=O)CO3)cc1OC	-1%	0	-17%[15.4 µM]	-19	0	-6
Cc1cccc(NC(=O)c2ccc(Cl)c(NC(=O)c3ccncc3)c2)c1C	-5%	-4	-21%[15.4 µM]	-5.8	-12	-5
CC1CCCCC1=NNC(=O)c1ccccc1 (stereo not drawn)	/	3	-47%[inhibitor]	-9.0	1	-6
CCCn1c(=O)c2sccc2n2c(CCCC(=O)NC3CCN(Cc4ccccc4)CC3)nnc12	-4%	3	?	-18	/	-12
CCOc1ccc(C2C(C#N)=C(N)N(c3sc4c(c3C#N)CCCC4)C3=C2C(=O)CCC3)cc1 (stereo not drawn)	-26%	-15	-9%	-2.5	-10	-1
COc1ccc(-n2c(SCC(=O)c3c(N)n(C)c(=O)n(C)c3=O)nc3ccccc32)cc1	1%	15	22%	-0.9	-12	5
Cn1ccnc1SCC(=O)NCC(=O)Nc1ccc(F)c(F)c1F	10%	-2	-35%[inhibitor]	-4.3	12	-9
NC1=NC(=O)/C(=C/c2cn(CCC(=O)O)nc2-c2ccc(F)cc2)S1	9%	-1	2%	0.4	1	-10
CCCCc1cc(=O)oc2cc(OC(C)C(=O)NCCN3CCOCC3)c(Cl)cc12 (stereo not drawn)	-6%	3	5%	4.9	-7	-11
COc1ccc(Cc2noc(CN3CCN(Cc4cccc(Cl)c4)CC3)n2)cc1OC	-8%	-5	-13%	0.6	-5	-8
CCc1cccc(OCCn2nc(C(=O)O)c3ccccc3c2=O)c1	7%	0	5%[15.4 µM]	3.3	-19	4
CC(=O)c1cc2c(cc1NC(=O)CN1CCOCC1)OCO2	6%	-1	9%	1.0	5	-5
COc1ccc(S(=O)(=O)CC(=O)c2cc(C)c(O)c(C)c2)cc1	-12%	0	17%	-2.3	/	-12
COc1ccc([C@@H]2CC=C(C(=O)O)[C@H](c3ccc(C(C)(C)C)cc3)N2S(=O)(=O)c2ccc(C)cc2)cc1OC	-17%	15	/	-0.1	1	/
COc1ccc(CN2CCN(C(=O)CC(C)C)CC2)c2ccccc12	-8%	-2	-46%[inhibitor]	-6.3	-2	-18

Part of the list above, in markdown.
| SMILES | gsp antag | Six1-Eya2 blk | gsp agonist | D2 ag | CtBP-E1A inh | D2 potentiator |
| --- | --- | --- | --- | --- | --- | --- |
| CCCn1c(=O)c2sccc2n2c(CCCC(=O)NC3CCN(Cc4ccccc4)CC3)nnc12 | -4% | 3 | ? | -18 | / | -12 |
| CCOc1ccc(C2C(C#N)=C(N)N(c3sc4c(c3C#N)CCCC4)C3=C2C(=O)CCC3)cc1 (stereo not drawn) | -26% | -15 | -9% | -2.5 | -10 | -1 |
